Bioassay records as filed in PubChem BioAssay.
HCMV NEC inh = disrupts HCMV UL50-UL53 complex binding. HTRF UL50-UL53 interaction, normalized percent inhibition. inhibition, % (no concentration beside the values). 0.15% of 190,000 active;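 active means both replicates at 50% or more, plus weaker picks with an unusually low signal ratio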;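 further: stock transfer was 100 nL into about 20 µL; 0% = negative control wells and 100% = wells with untagged competitor protein; inactives centre near -12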
Sa growth inh = inhibitors of Staphylococcus aureus growth at 42 °C. AID 720641. relative growth, % (test concentration not listed). S. aureus RN4220 growth, OD600, 20 h; active compounds read low. 0.53% of 170,000 active;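 active means growth at 42 °C up to 50% and 20 or more points under that at 30 °C, or under 10% at both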;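 further: 300 nL library stock went into each well; scaled to the means of positive and negative controls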
GIV Gai3 FP = inhibitors of GIV GBA-motif binding to rat Galpha-i3 | P08753 | Galpha-i3/FITC-GIV peptide fluorescence polarization, 90 min; active compounds read low; scaled: aluminum fluoride 0%, vehicle 100% | percent of control (FP), % (no concentration beside the values) | 0.42% of 210,000 active | AID 1224905;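 active means replicate mean at 85% of control or lower, very high polarization wells dropped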;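 further: wells of about 15 µL received 100 nL stock; the first replicate is given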
Target sequence (P08753 whole entry, looked up): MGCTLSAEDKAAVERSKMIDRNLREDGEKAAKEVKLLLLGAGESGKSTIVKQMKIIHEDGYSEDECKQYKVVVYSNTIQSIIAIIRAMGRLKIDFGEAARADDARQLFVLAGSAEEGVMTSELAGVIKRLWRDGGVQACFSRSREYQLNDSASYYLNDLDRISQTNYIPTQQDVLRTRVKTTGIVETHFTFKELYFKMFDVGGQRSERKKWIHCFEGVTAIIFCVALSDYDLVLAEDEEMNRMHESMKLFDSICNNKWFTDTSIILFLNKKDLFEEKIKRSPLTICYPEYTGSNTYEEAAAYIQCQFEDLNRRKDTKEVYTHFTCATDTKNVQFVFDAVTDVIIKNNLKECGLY
Sa growth inh second temp = second read-out of Sa growth inh, no call of its own (marks repeat the call); relative growth, %; measured here: growth at 30 °C;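 optical density after 20 h as mean of two plates; 100% = untreated growth and lower means inhibition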
Numbers without * were called inactive; . = no result given; & = joins results of further samples.

SMILES	HCMV NEC inh	Sa growth inh	Sa growth inh second temp	GIV Gai3 FP
COc1cccc(-c2cc(=O)c3ccc(O)cc3o2)c1	-28	72	39	.
Nc1nc2ccc(N3CCOCC3)cc2s1	-15	99	91	.
CCc1ccc(S(=O)(=O)c2nnn3c2nc(N2CCOCC2)c2sccc23)cc1	.	102	83	103
CCCc1cc(=O)n2[nH]c(NCc3ccccc3OC)nc2n1	4	92	94	103
CCC(C)NC(=O)CSc1ncc(C#N)c(N)n1 (stereo unspecified)	0	74	95	106
CCOc1ccc(N2CC(NC(=O)/C=C\c3ccc4c(c3)OCO4)CC2=O)cc1 (stereo unspecified)	.	112	91	97
CC1CCC(NC(=O)CCC(=O)Nc2nc(-c3cc4ccccc4oc3=O)cs2)CC1 (stereo unspecified)	.	99	89	99
c1ccc(Cn2cc(CN3CCN(c4ccccc4)CC3)c3ccccc32)cc1	.	90	98	103
Cc1nn2c(-c3ccccc3)csc2nc1=O	-1	88	43	108
Cc1ccc(NC(=O)C2OCCc3ccccc32)cc1 (stereo unspecified)	-30	108	95	99
CC1=CC(=C2N=C(c3ccccc3)OC2=O)C=C(C)O1	-16	97	91	73*
O=C(O)CCCC(=O)Nc1ccccc1-n1ccnc1	-2	106	96	.
CCCn1c(=O)n(Cc2ccc(C#N)cc2)c2ccccc21	-24	92	86	.
Cc1c(N(C)S(C)(=O)=O)c(=O)n(-c2ccccc2)n1C	-10	108	87	.
Cc1cc2[nH]c(=O)c(=O)[nH]c2cc1S(=O)(=O)N1CCN(c2ccccc2F)CC1	.	98	97	105
Cc1nn2c(C)c(C(=O)NC3CC3)cnc2c1-c1ccc(F)cc1	-42	.	.	101
O=C(/C=C(\O)c1ccccc1)C(=O)Nc1cccc(F)c1	-26	-0.6*	-0.7*	107
NNC(=O)c1nc(COc2ccccc2Cl)no1	-25	89	78	107
CCNC(=S)NN=C1CCC(C(C)(C)C)CC1 (stereo unspecified)	9	88	90	.
Cc1ccc(-n2nc3c(=O)n(CCCC(=O)NCCc4ccccc4)nc(C)c3c2C)cc1	.	106	97	110
CN1C=CC=C/C1=C1\SC(=S)N(C2CCCCC2)C1=O	-116	107	99	117
O=C(O)CCn1c2ccccc2c2ccccc21	-10	102	82	.
Cc1cc(C)nc(NS(=O)(=O)c2ccc(NC(=O)Cn3c(=O)oc4ccccc43)cc2)n1	-16	94	77	102
Cc1ccccc1OCC(O)CN(C)C (stereo unspecified)	-2	99	92	.
C[C@@H]1CCC2[C@](C)(CO)[C@@H](O)CC[C@]2(C)[C@@]12CCC(CO)(CCO)O2 (stereo partly specified)	-29	95	89	99
CCN(Cc1ccncc1)C(=O)c1csc2ccccc12	-32	108	94	95
Cn1cc(Cl)c(C(=O)N2CCc3ccccc3C2)n1	-16	92	84	.
NC(=Nc1ccc(Cl)c(Cl)c1)c1ccccc1	-4	91	89	104
O=C(O)c1ccc2c(c1)C1C=CCC1C(c1ccc(Br)cc1)N2 (stereo unspecified)	21	79	71	108
Cc1cc(=O)n(CCc2ccccc2)c(O)c1C#N	.	97	92	106

Entries of single compounds as entered above. Screens in order: HCMV NEC inh | Sa growth inh | Sa growth inh second temp | GIV Gai3 FP
`Cc1ccccc1OCC(O)CN(C)C` (stereo unspecified) reads -2 | 99 | 92 | .
`O=C(O)CCn1c2ccccc2c2ccccc21` reads -10 | 102 | 82 | .
`CCN(Cc1ccncc1)C(=O)c1csc2ccccc12` reads -32 | 108 | 94 | 95
`Cc1cc(C)nc(NS(=O)(=O)c2ccc(NC(=O)Cn3c(=O)oc4ccccc43)cc2)n1` reads -16 | 94 | 77 | 102
`Cn1cc(Cl)c(C(=O)N2CCc3ccccc3C2)n1` reads -16 | 92 | 84 | .

(next part)
SMILES	HCMV NEC inh	Sa growth inh	Sa growth inh second temp	GIV Gai3 FP
Cc1ccc(C(C)C)c(OCc2nnc3c4cnn(Cc5ccccc5)c4ncn23)c1	-15	107	88	99
CCc1nn(CC(=O)Nc2c(C)cccc2C)c(=O)c2cc3sccc3n12	-17	120	95	103
COc1cccc(CNC(=O)CSc2ncc(S(=O)(=O)c3ccc(Br)cc3)c(=O)[nH]2)c1	7	104	89	106
O=C(O)c1cc(N2CCC(N3CCCCC3)CC2)ccc1NC(=O)C1CCCC1	-21	.	.	104
CCOC(=O)c1c(C)[nH]c(C)c1S(=O)(=O)NCc1ccccc1C	-6	101	86	102
COc1ccccc1N1CCN(C(=O)c2cc3c(=O)oc4ccc(C)cc4c3s2)CC1	-5	84	98	104
CC(=O)Oc1ccc(N(C(C)=O)S(=O)(=O)c2ccc(Cl)cc2)cc1	.	98	93	103
O=C1COCC(=O)N1c1ccc2c(c1)OCO2	-6	99	83	103
CC[C@H](C)[C@H]1O[C@]2(CC[C@@H]1C)C[C@@H]1C[C@@H](C/C=C(\C)[C@@H](O[C@H]3C[C@H](OC)[C@@H](O[C@H]4C[C@H](OC)[C@@H](O)[C@H](C)O4)[C@H](C)O3)[C@@H](C)/C=C/C=C3\CO[C@@H]4[C@H](O)C(C)=C[C@@H](C(=O)O1)[C@]34O)O2	-12&-12	95	95	107
Cc1ccccc1NC(=O)Cn1c(=O)n(CC2CCC(C(=O)NCCc3ccccc3)CC2)c(=O)c2ccccc21 (stereo unspecified)	-19	105	95	107

Reprinted at random: 5 entries already listed, in no set order.
SMILES	HCMV NEC inh	Sa growth inh	Sa growth inh second temp	GIV Gai3 FP
O=C(O)c1ccc2c(c1)C1C=CCC1C(c1ccc(Br)cc1)N2 (stereo unspecified)	21	79	71	108
CCN(Cc1ccncc1)C(=O)c1csc2ccccc12	-32	108	94	95
Cn1cc(Cl)c(C(=O)N2CCc3ccccc3C2)n1	-16	92	84	.
CCc1ccc(S(=O)(=O)c2nnn3c2nc(N2CCOCC2)c2sccc23)cc1	.	102	83	103
CCc1nn(CC(=O)Nc2c(C)cccc2C)c(=O)c2cc3sccc3n12	-17	120	95	103

Next section:
SMILES	HCMV NEC inh	Sa growth inh	Sa growth inh second temp	GIV Gai3 FP
COc1cccc(CNC(=O)Cn2cc3c(n2)-c2c(oc(C(=O)N4CCCC4)c2C)CC3)c1OC	.	114	87	108
O=C1c2ccccc2C(=O)N1CCCC(=O)n1ccc2ccccc21	.	105	86	96
CC1(C)Nc2ccccc2C(=O)N1c1ccccc1	4	98	75	108
O=C(c1ccccc1-c1nc(-c2ccc(Cl)cc2)no1)N1CCCC1	-2	.	.	98
CCCSc1nnc(CN2CCOCC2)n1C	-4	101	76	99
COc1ccc(NC(=O)C(c2ccc(C)cc2)N(C)C(=O)Cc2cccs2)cc1 (stereo unspecified)	-10	108	93	96
O=C(NCC1COc2ccccc2O1)c1ccc(=O)[nH]c1 (stereo unspecified)	10	99	99	.
O=C(Cn1ccc2cc(S(=O)(=O)N3CCCCCC3)ccc21)NCCc1ccc(Cl)cc1	.	101	98	109
N#CCn1c(COC(=O)CN2C(=O)C3CC=CCC3C2=O)nc2ccccc2c1=O (stereo unspecified)	-22	82	92	.
CCCOc1ccc(CN2C(=O)C(=O)c3cccc(C)c32)cc1	2	106	93	106
Nc1nc(-c2ccc(Cl)cc2)nn1C(=O)C1CC1	-19	.	.	99
CCOc1ccc(NC(=O)c2ccc3nc(C(C)C)oc3c2)cc1	.	97	87	94
CCOC(=O)c1sc2nc(SCC(=O)Nc3ccc(OCC)cc3)n(N)c(=O)c2c1C	.	109	88	109
Cc1oc(-c2ccc(Cl)cc2)nc1CSc1nc(-c2cccnc2)cc(=O)[nH]1	-25	.	.	104
Oc1ccccc1OCc1nc2ccccc2s1	-5	83	84	.
CN1CC(=O)Nc2cc(C(=O)O)ccc21	.	87	80	96
O=C(CCOc1ccccc1)Nc1nccs1	-4	101	98	100
Clc1cc(Cl)cc(-c2nnnn2Cc2ccccc2)c1	-21	106	89	100
Cc1cccc(NC(=O)CCC2=NS(=O)(=O)c3cc(Br)cnc3N2)c1	.	87	67	97
COC(=O)Nc1nc2ccc(C(=O)c3ccccc3C(=O)OC(C)C)cc2[nH]1	-23	103	88	100
C/C(=N\NC(=O)C1CC1)c1ccc(C(C)(C)C)cc1	-17	94	87	.
CC(=O)NCCNC(=O)CCCc1nnc2n(CC(C)C)c(=O)c3sccc3n12	.	86	88	93
CCN(c1ccccc1)S(=O)(=O)c1ccc2[nH]cc(C(=O)NCc3ccccc3)c(=O)c2c1	.	114	84	97
O=S(=O)(NC1CC2CCC1C2)c1ccc2c(c1)OCCO2 (stereo unspecified)	-3	106	81	104
O=C1Nc2ccccc2NC1CC(=O)N1CCC2(CC1)OCCO2 (stereo unspecified)	.	100	61	116
CC(C)(C)c1cc2nc(C(F)(F)F)cc(N3CCN(C(=O)Nc4ccccc4)CC3)n2n1	-15	93	85	99
CCCNC(=O)CSc1nnc(SCC(=O)NCCCn2nc(C)cc2C)s1	-18	102	93	.
O=C(NCCC1CCCCN1S(=O)(=O)c1ccccc1)Nc1ccccc1 (stereo unspecified)	-34	72	85	103
CC1CC(C)CN(S(=O)(=O)c2ccc3[nH]cc(C(=O)NCCC4=CCCCC4)c(=O)c3c2)C1 (stereo unspecified)	.	98	88	100
Cc1ccc2c(c1)sc1ncc(NC(=O)c3ccccc3)c(=O)n12	.	97	94	99
Cc1cc(C)n(CCCNC(=O)c2ccc3ccccc3c2)n1	-48	93	90	.
CCOC(=O)c1cnc2c(C)cc(C)cc2c1Nc1ccc2c(c1)OCCO2	.	115	80	99
O=C(CC1(CC2=NS(=O)(=O)c3ccccc3N2)CCCC1)NCCc1ccccc1	6	115	89	101
COc1ccc(S(=O)(=O)N2CCCCC2)cc1C(=O)NC1CCS(=O)(=O)C1 (stereo unspecified)	.	111	91	101
COc1cc(-c2nc3sccn3c2Nc2cccc(C)c2)ccc1O	-14&-12	100	78	108&103
CCOc1ccc(NS(=O)(=O)c2cc(C(=O)Nc3ccc(Br)cc3)n[nH]2)cc1	-9	.	.	99
CCOC(=O)c1c(/N=C/c2c(C)[nH]n(-c3ccc(C)cc3)c2=O)sc(C)c1-c1ccc2cc(OC)ccc2c1	-1	.	.	108
CCOC(=O)C1CCN(C(=O)c2oc3ccc4c(c3c2C)C(=O)CC2(CCCCC2)O4)CC1	-11	.	.	106
CC(C)NC(=O)CSc1nc2ccccc2c(=O)n1-c1ccccc1	9	109	99	100
CCOc1ccc(OCC)c(NC(=O)c2cnn(-c3ccc(F)cc3)c2-n2cccc2)c1	.	76	93	99
O=C(NCc1ccco1)c1cc2c(Cl)nc3ccccc3c2s1	-7	88	92	98
CCCC1=C(C(=O)OCC)C(c2ccccc2OC)C(C#N)=C(N)O1 (stereo unspecified)	-13	99	81	.
CCN(CC)CCCOc1ccc(C)cc1C	-10	108	112	107
CCOc1ccc2nc(Nc3nc4ccccc4c(=O)[nH]3)nc(C)c2c1	-14	.	.	106
CCCN(CCC(=O)N1CCNCC1)C(=O)c1ccc(Cl)cc1	16	.	.	103
O=C1CN(c2ccccc2)C(=O)C1C(=O)NCc1ccccc1 (stereo unspecified)	1	105	103	104
NC(=O)COc1ccc(C2C3=C(CCCC3=O)OC3=C2C(=O)CCC3)cc1Cl	-10	119	80	.
COc1cc(CNC(C)(C)CO)cc(Br)c1OCc1ccc(F)cc1	.	113	97	97
COc1cc(/C=C/C(=O)C2CC2)cc(OC)c1OC	-6	117	73	105
CC(C)CCn1c(=O)c2ccccc2n2c(=O)n(CC(=O)N3CCN(c4ccc(F)cc4)CC3)nc12	-6	.	.	100

More records
SMILES	HCMV NEC inh	Sa growth inh	Sa growth inh second temp	GIV Gai3 FP
COc1ccc(OC(=O)c2ccc3ncccc3c2)cc1	-9	98	76	98
CCc1cc(CN2CCOCC2)c(NC(=O)c2ccccc2)s1	-6	97	97	.
CCc1nonc1NC(=O)c1oc2ccc(F)cc2c1C	-35	98	83	96
CCCCN(C)C(=O)CN1C(=O)CCSc2ccccc21	-14	110	89	99
O=C(NC1CCCCC1)n1c(=O)oc2cc(S(=O)(=O)N3CCCCC3)ccc21	2	110	99	.
CC(c1ccccc1)N1CCC(=O)C2=C1CCCC2 (stereo unspecified)	-15	100	103	99
Cc1cc(C)n2ncc(C(=O)Nc3ccc4c(c3)OCCO4)c2n1	-15	.	.	102
CC(C)(C)Nc1n[nH]c(=S)s1	-20	37	63	.
Nc1c(C(=O)c2ccc(Br)cc2)sc2[nH]c(=O)c(C(=O)O)cc12	.	95	86	110
Cc1ccc(N(CCCCN2C(=O)c3ccccc3C2=O)C(=O)c2cccc(Cl)c2)cc1	.	102	84	100
Nn1c(Cc2ccccc2F)nnc1SCC(=O)NCC(F)(F)F	-3	97	96	.
CC(C)c1ccc(NC(=O)CSC2=Nc3ccccc3C3=NC(CCC(=O)NCc4ccco4)C(=O)N23)cc1 (stereo unspecified)	.	93	89	103
COc1ccc(-n2cnnc2SCc2c(C#N)oc3ccc(Br)cc23)cc1	-29	84	77	.
CN1CCSc2ccc(C(=O)N3CCCCCC3)cc21	-3	109	93	104
COc1cc(C(=O)OCCCN2CCOCC2)ccc1O	-5	122	94	102
COc1ccc(N2CCN(CCCNC(=O)C3CCN(S(=O)(=O)c4ccc(Br)s4)CC3)CC2)cc1	-7	110	99	110
